Source: PubChem (several laboratories)
Yeast UUG start = modulators of yeast start codon fidelity, primary screen, whole organism, S. cerevisiae, single point, plate reader | hit rate 0.13% among 350,000 | AID 602363, 2012 | S. cerevisiae UUG-firefly luciferase reporter, luminescence/redox ratio | activity score, % at 18.7 µM;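 active = replicate mean at a twofold rise or more, about +100% in these data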;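 note: firefly luciferase made from a UUG start codon reports start codon fidelity; reporter light over untreated wells divided by growth signal over untreated wells; some hits fall short of that in this replicate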
eIF4H FP inh = human eIF4H binding inhibitors, primary screen, translation initiation inhibitor project, biochemical, uHTS, fluorescence polarization | AID 2012, 2009 | inhibition, % at 35 µM | eIF4H fluorescence polarization binding assay | Eukaryotic translation initiation factor 4H (Homo sapiens), Q15056 | hit rate 0.94% among 290,000;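 active = 50% or more with normal probe brightness, or confirmed in later tests; about a fifth of its hits are not listed in these tables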;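 note: calls also rest on retests at 20 µM and on dose response follow-up; 0% = protein and probe with vehicle and 100% = probe without protein; strong numbers were not always called active; many hits fall short of the cut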
MT1-MMP act inh = blockers of MT1-MMP proenzyme processing, primary screen, HT1080 RFP-PRO-GFP cells, GFP/RFP fluorescence; hit rate 0.061% among 360,000; Matrix metalloproteinase-14 (Homo sapiens), P50281; GFP/RFP ratio fluorescence, overnight; percent of plate control window, DMSO zero; GFP/RFP ratio change, % at 20 µM;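 active = GFP/RFP ratio change of at least 30% with cell ATP level not reduced by more than half and red fluorescence within 50% of control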; note: strong numbers were not always called active
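system = RFP-PRO-GFP reporter HT1080 cells | dosing = 20 µM single dose, 1% DMSO | timing = overnight cell settling, then overnight compound exposure, 37 °C, 5% CO2 | read-out basis = GFP/RFP fluorescence ratio | controls = DMSO and RFP-L50D-GFP cell wells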
Rce1 inhib = yeast Rce1p protease inhibitors, primary screen, biochemical, fluorescence, cell-free homogeneous | yeast membranes, quenched prenylated peptide cleavage fluorescence | CAAX prenyl protease 2 (Saccharomyces cerevisiae (strain ATCC 204508 / S288c)), Q03530 | hit rate 0.27% among 290,000 | calls only;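 active = fall in fluorescence gain of 50% or more versus controls, with final raw signal at or below 3038400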;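 note: plate controls were neutral control wells for no effect and wells lacking membranes for full effect; tested at 10 µM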
Target sequence (Q03530 whole entry, looked up): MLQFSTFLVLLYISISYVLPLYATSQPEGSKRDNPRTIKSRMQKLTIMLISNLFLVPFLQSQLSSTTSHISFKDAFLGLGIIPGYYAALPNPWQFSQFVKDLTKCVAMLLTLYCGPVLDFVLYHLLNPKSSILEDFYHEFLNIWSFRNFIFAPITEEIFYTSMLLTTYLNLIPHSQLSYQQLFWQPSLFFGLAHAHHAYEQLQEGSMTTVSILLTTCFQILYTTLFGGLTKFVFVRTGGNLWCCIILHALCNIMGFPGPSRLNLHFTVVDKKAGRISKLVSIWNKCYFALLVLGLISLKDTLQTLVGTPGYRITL
PABP polyA inh = PABP poly(A) RNA binding inhibitors, primary screen, biochemical, fluorescence polarization, uHTS; Polyadenylate-binding protein 1 (Homo sapiens), P11940; inhibition, % at 35 µM; hit rate 1% among 290,000; AID 2014, 2009;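 active = 50% or more with normal probe brightness, or confirmed in later tests; about a fifth of its hits are not listed in these tables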;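 note: calls also rest on retests at 20 µM and on dose response follow-up; controls were probe without protein and protein plus probe with vehicle; some compounds called inactive have numbers as strong as hits; many hits fall short of the cut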
CSC inhib = cancer stem cell viability inhibitors, primary screen, luminescence | cancer stem cell-like cells viability | inhibition, % at 7.5 µM | hit rate 1.1% among 300,000;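 active = mean at 75% or more and at least half the replicates too; tested in HMLE shEcad cells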;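 note: 0% = median of negative and 100% = median of positive control wells; the first replicate is given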
Env fusion inh = inhibitors of HIV-1 Env-driven cell-cell fusion, primary screen, HeLa-JRFL effector, CEM21 target cells, luciferase; inhibition, % at 12.3 µM; hit rate 1.1% among 360,000; AID 651610, 2012;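 active = mean replicate inhibition score of at least 50 and every replicate individually at or above 50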;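 note: 0% = plate neutral controls and 100% = maraviroc near 300 nM; one replicate is shown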
MT1-MMP act inh RFP = recorded beside MT1-MMP act inh, whose call it bears; RFP signal change, %; measured here: RFP expression control read;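 0 = vehicle wells; hits needed this value within 50% of zero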
* marks the source's active call; other numbers are inactive results; i = inactive; nt = no result given; & = joins results of further samples; [ ] = remark or other dose. The list is partial, so the mix of outcomes need not match the whole.

Start of the data: the first two entries, ahead of the listing:
canonical_smiles	PABP polyA inh	Rce1 inhib	MT1-MMP act inh RFP	Env fusion inh	eIF4H FP inh	Yeast UUG start	CSC inhib	MT1-MMP act inh
C/C(CC(=O)Nc1ccccc1C(F)(F)F)=N\NC(=O)c1cnccn1	nt	i	9	-16	nt	-16	8	-2
NS(=O)(=O)c1ccc(Nc2nc(-c3ccc(F)cc3)cs2)cc1	5	i	-8	-10	0	-7	8	2

The list itself, from the first entry:
canonical_smiles	PABP polyA inh	Rce1 inhib	MT1-MMP act inh RFP	Env fusion inh	eIF4H FP inh	Yeast UUG start	CSC inhib	MT1-MMP act inh
C/C(CC(=O)Nc1ccccc1C(F)(F)F)=N\NC(=O)c1cnccn1	nt	i	9	-16	nt	-16	8	-2
NS(=O)(=O)c1ccc(Nc2nc(-c3ccc(F)cc3)cs2)cc1	5	i	-8	-10	0	-7	8	2
COc1ccc(CNC(=O)COC(=O)CCn2c(C)csc2=O)cc1OC	nt	i	1	-8	nt	6	1	0
CCCOC(=O)C1[C@H]2C(=O)N(C(C)c3ccc(OC)cc3)C[C@]23C=C[C@H]1O3 (some centres undefined)	16	i	3	nt	4	3	-4	1
Cn1cc(/C=C(\NC(=O)c2ccccc2Cl)C(=O)NCCCn2ccnc2)c2ccccc21	9	i	2	-5	-7	nt	10	2
O=C1CC(CC(=O)N/N=C/c2ccccc2[N+](=O)[O-])=NN1	0	i	4	0	-6	-3	4	9
COc1ccc(C(C)=O)cc1CSc1nc2ccccc2c(=O)n1-c1ccccc1	6	i	-11	0	-5	-6	3	-12
CCSCCC(NC1=CC(=O)CC(C)(C)C1)C(=O)O (centres undefined)	0	i	0	nt	-3	10	10	2
COc1ccc(C2c3ccc4ccccc4c3Oc3ncn(CCN4CCOCC4)c(=N)c32)cc1 (centres undefined)	-5	i	-6	-15	7	1	10	2
CCc1ccc(/C=N/NC(=O)Cc2ccc(OC)c(OC)c2)s1	5	i	-2	6	12	-2	7	-7
CCCCCCN1CCN(C2CN(CCc3ccccc3)S(=O)(=O)C2)CC1 (centres undefined)	nt	nt	1	5	nt	-1	nt	3
COc1ccc([N+](=O)[O-])cc1N(CC(=O)N(C)C)S(C)(=O)=O	-13	i	5	-4	10	nt	-7	-2
COc1cccc(-c2nn3c(-c4ccccn4)nnc3s2)c1	4	i	-2	-73	-1	-20	6	-2
CCN1C(=O)S/C(=C/c2c(OCc3ccc(C(=O)O)cc3)ccc3ccccc23)C1=O	7	nt	-5	nt	-6	-21	43	6
Nc1nonc1N/N=C/c1c(O)ccc2ccccc12	-15	i	-3	-3	3	nt	38	4
Cc1ccn2cc(C(=O)Nc3ccccc3N3CCOCC3)nc2c1	-9	i	0	nt	-1	-10	1	9
CCN(CC)c1nc(SCCOC(=O)Nc2ccccc2)nc(N(CC)CC)n1	8	i	-10	nt	6	-11	81*	-6
COCCn1c(SCC(=O)NC(=O)NCc2ccccc2)nc2ccccc21	7	i	1	22	-6	2	-5	-7
COc1ccccc1NC(=O)c1cc([N+](=O)[O-])ccc1NCCN1C(=O)CCC1=O	12	i	2	5	14	nt	-1	0
COc1cc([N+](=O)[O-])ccc1NC(=O)COC(=O)CCS(=O)(=O)c1ccc(C)cc1	nt	i	2	5	nt	-16	-7	-2
Cc1cccc(Nc2ccncc2S(=O)(=O)NC(=O)NC(C)C)c1	7	i	1	11	-13	-30	1	3
O=S1(=O)C=C(Sc2nnc(-c3ccccc3)o2)c2ccccc21	9	i	-8	nt	2	-27	108*	-4
CCOC(=O)c1cnc2nc(Cc3ccccc3)[nH]n2c1=O	8	i	6	nt	1	-14	-3	6
CC(C)(C)n1ncc2c(=O)n(Cc3cccc(Cl)c3)cnc21	-14	nt	-6	12	0	nt	-5	3
Cc1ccccc1-c1nnc(-c2cccs2)o1	-3	i	-1	-47	-6	-10	-3	-5
Clc1cccc(Cl)c1COn1nnc2ccccc21	5	i	3	-61	3	-11	3	1
COc1cccc(NC(=O)N(C)C[C@H]2Oc3ncc(Br)cc3C(=O)N([C@H](C)CO)C[C@H]2C)c1	nt	nt	6	7	nt	7&-7	nt	5
CN(C)CCN(C(=O)c1ccc(Br)s1)c1nc2cc3c(cc2s1)OCCO3	-3	i	8	0	1	0	-32	9
C/C(=C/c1ccccc1)C(=O)N1CCN(c2ccc(F)cc2)CC1	-9	i	1	2	-6	5	-9	1
O=[N+]([O-])c1ccc(Nc2ccccc2F)nc1	-5	i	-1	-12	1	nt	4	-2
O=Cc1ccc(OC(=O)C2CC(=O)N(c3ccc(F)cc3)C2)cc1 (centres undefined)	2	i	4	-55	6	-11	-4	1
CCc1ccccc1NC(=O)C1CCCC1	nt	i	0	11	nt	-10	-5	2
CC(=O)Nc1ccc(S(=O)(=O)N[C@@H](C)C(=O)OCC(=O)c2ccc(C)cc2)cc1	nt	nt	1	0	nt	-1	-9	3
O=C1c2ccccc2C(=O)N1CC(O)COc1ccccc1Cl (centres undefined)	1	i	3	5	-4	-2	-7	2
CCN1CCCc2cc(CN(CCN3CCOCC3)C(=S)Nc3ccc(OC)cc3)ccc21	6	i	2	24	-8	nt	-4	2
CC(=O)c1ccc(NC(=S)NCc2ccco2)cc1	-1	i	3	11	2	nt	-9	2
O=C(C[n+]1cccc(CNC(=O)c2ccc(OC(F)F)cc2)c1)c1ccccc1	-5	i	10	3	0	-4	-1	3
O=C(O)c1cccc(C(=O)O)c1Br	-1	i	1	-14	5	-9	9	0
Cc1ccc(OCC(=O)Oc2ccccc2[N+](=O)[O-])cc1	nt	i	0	-15	nt	-1	1	4
COc1ccc(C(=O)NNC(=O)C(=O)Nc2ccc(C)c(Cl)c2)cc1	6	i	1	-21	7	nt	13	1
CCOc1ccc(NC(=O)COc2coc(CN3CCc4ccccc4C3)cc2=O)cc1	nt	i	-7	nt	nt	-1	-4	-3
O=C(COC(=O)c1cccc(S(=O)(=O)N2CCOCC2)c1)Nc1ncc(Cl)cc1Cl	nt	nt	3	nt	nt	-7	-10	3
O=C(Cc1nc2ccccc2[nH]1)c1ccc([N+](=O)[O-])cc1	2	nt	-7	-73	9	-26	-13	6
[O-]c1n[n+](-c2ccc(Cl)cc2)cc2ccccc12	5	i	5	18	2	nt	9	1
CCOc1ccc(N(CC(=O)Nc2cccc(C)c2)S(C)(=O)=O)cc1	-4	i	1	-35	-8	-12	-15	3
Cc1[nH][nH]c(=O)c1C(c1ccc(-c2cccc(C(=O)O)c2)o1)c1c(C)[nH][nH]c1=O	30	nt	8	-33	41	nt	8	1
CC(NC(=O)c1cc(S(=O)(=O)N2CCOCC2)cn1C)c1ccccc1 (centres undefined)	5	i	6	-11	-3	1	-22	4
Cc1cc(C)n(S(=O)(=O)c2ccc3ccccc3c2)n1	8	i	2	14	1	16	-2	7
CC1CC1C(=O)OCC(=O)Nc1ncc(Cl)cc1Cl (centres undefined)	nt	i	5	9	nt	-9	-3	-4
CC(C)Cc1nc(C#N)c(N2CCC(C(N)=O)CC2)o1	5	i	2	8	-8	-11	-3	2
N#C[C@@H]1N(Cc2ccccc2)C(=O)[C@H]2CC3C=CC21O3 (some centres undefined)	nt	i	nt	-4	nt	-10	11	nt
Cc1cc(NCCO)nc(-n2nc(C)cc2C)n1	8	i	1	nt	6	nt	-9	2
COc1ccc(NC2SC(=O)N(CC(=O)O)C2=O)cc1 (centres undefined)	7	nt	4	-21	4	31	9	-3
CCOC(=O)c1ccccc1NC(=O)C1CSC2(C)CCC(=O)N12 (centres undefined)	2	i	-1	-18	-3	-6	-5	1
COc1ccc(NC(=O)N(C)C[C@H]2OCc3cnnn3CCCC(=O)N([C@@H](C)CO)C[C@H]2C)cc1	nt	nt	0	-19	nt	-2&-2	nt	4
COc1cc(CCCN2CCNC[C@@H]2c2ccccc2)cc(OC)c1OC	nt	nt	1	-15	nt	1	3	-9
CCOC(=O)n1c(=O)n(Cc2cccc(C)c2)c2ccccc21	10	i	-2	-19	0	nt	-10	5
COc1ccc(Cn2c(-c3ccco3)nc3oc4ccccc4c(=O)c3c2=O)cc1	-1	i	-2	-67	2	-4	-3	-1
CCC(C)c1ccc(NC(=O)CN(C)CC(=O)Nc2cccc(OC)c2)cc1 (centres undefined)	4	i	5	-3	-5	-13	2	-2
COc1ccc(CNC(=O)c2sc(=O)n(Cc3ccc(C)cc3)c2C)cc1	nt	nt	-12	25	nt	-21	nt	1

Next section
canonical_smiles	PABP polyA inh	Rce1 inhib	MT1-MMP act inh RFP	Env fusion inh	eIF4H FP inh	Yeast UUG start	CSC inhib	MT1-MMP act inh
Cc1cc(NC(=O)Nc2ccccc2)n(-c2ccccc2)n1	-1	i	5	nt	-10	-16	-8	4
CCc1ccc(NC(=O)C(=O)NCCN2CCN(S(=O)(=O)c3ccccc3)CC2)cc1	-8	i	-4	-1	-5	-8	-1	1
COc1ccccc1NS(=O)(=O)c1cc(C(=O)NCC2CCCO2)ccc1C (centres undefined)	nt	i	-2	nt	nt	nt	-7	2
Cc1ccc(C(=O)c2ccccc2C(=O)OCC(=O)Nc2ccc(SC(F)F)cc2)cc1	4	i	-17	18	2	-14	-3	-7
COc1ccc(-n2cc(-c3ccccc3)[nH]c2=S)cc1	-8	i	0	-7	-9	nt	7	0
O=C(NS(=O)(=O)c1ccccc1)c1ccccc1F	15	i	4	nt	4	-5	-7	-1
Cc1ccc(C(=O)OCC(=O)N(C)C2CCS(=O)(=O)C2)cc1S(=O)(=O)N1CCCCC1 (centres undefined)	nt	i	0	0	nt	nt	-8	-6
FC(F)(F)c1cccc(NC(=S)NCc2ccc(Cl)cc2)c1	-16	i	-7	64*	-11	nt	59	0
C[C@@H]1CN([C@H](C)CO)C(=O)CCCn2nncc2CO[C@@H]1CN(C)C(=O)OCc1ccccc1	nt	nt	5	0[16.7 µM]	nt	1&-12&10	nt	-2
O=C(c1ccccc1)c1cccc(C(=O)c2ccccc2)c1	nt	nt	-6	nt	nt	8	6	-3
COc1ccc(NC(=O)CCC(=O)NCc2ccco2)c([N+](=O)[O-])c1	-11	i	-1	-7	-16	3	-5	-5
CCOC(=O)N1CCN(S(=O)(=O)c2ccc(F)c(C(=O)Nc3ccc(C(C)C)cc3)c2)CC1	-8	i	-10	-9	-3	0	12	-3
CN(C)S(=O)(=O)c1cccc(C(=O)Nc2cc(Cl)ccc2O)c1	17	i	-3	nt	-16	-10	-5	2
CCn1c(=O)cc(O)c2c(=O)n(C)c(=O)n(C)c21	12	i	3	nt	5	-5	17	5
CN(Cc1ccccc1)C(=O)COC(=O)c1cc(S(=O)(=O)N(C)C)ccc1N1CCCC1	nt	i	-4	-11	nt	nt	-4	1
NC(=O)CCCc1nc(-c2ccccc2Cl)no1	1	i	-11	-31	-10	-20	-7	-2
O=c1cc(-c2ccccc2)[nH]c2nc3ccccc3n12	8	i	-11	i	4	-7	54	2
O=C1CCC[C@@H]2CC(Nc3ccc(F)cc3F)C[C@@H]3CCN1[C@H]23 (some centres undefined)	nt	nt	3	17	nt	-41	nt	4
Cc1ccc(NC(=O)c2cc(-n3cnnc3)ccc2Cl)c(C)c1	5	i	8	nt	-2	-51	-11	6
COc1ccc(OCC(=O)N/N=C(\C)CC(=O)Nc2ccc(NC(C)=O)cc2)cc1	3	nt	2	4	-13	-10	-9	3
